Mtb bLac sens = beta-lactam sensitization of Mtb H37Rv, H37Rv; M. tuberculosis H37Rv growth with meropenem, percent inhibition; hits of this screen are not shown here; inhibition, % at 25 µM; actives 0.27% (n = 330,000);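 active = about 74% or more and at least 40 points above the plate without the antibiotic, then above 30% in a dose series; inconclusive = first-round hits that could not be retested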;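 note: growth measured after seven days incubation then overnight dye step; 0% = bacteria only wells and 100% = bacteria with antibiotic; twin plates without the antibiotic show which effects depend on it; some results filed as inactive read as strong as hits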
Active calls of the source: *; ? = inconclusive. The list is partial; count on the stated rates, not on these rows.

SMILES	Mtb bLac sens
Fc1ccc2c(-c3cccc(C(F)(F)F)c3)c(-c3ccccc3)ncc2c1	3
Cc1ccc(-c2cc3onc(-c4ccccc4)c3c(=O)n2C)cc1	-1
CCCCn1nc(C(=O)NC2CCCCCC2)c2ccccc2c1=O	3
Cc1nc(SCc2nc3ccccc3[nH]2)c2oc3cc([N+](=O)[O-])ccc3c2n1	-2
C=CCN(c1ccccc1OC)S(=O)(=O)c1cccc(C(=O)Nc2nnc(C3CC3)s2)c1	-3
CN(C)C1=NCCN1CCCCc1ccccc1	0
CCCN(C(=O)COC(=O)c1nc2nc(C)cc(C)n2n1)C1CCS(=O)(=O)C1 (stereo not given)	1
CCOC(=O)[C@H]1[C@H]2COc3cc(OC)ccc3[C@@H]2N2C(=O)c3cc(F)c(F)cc3NC(=O)[C@@]12C	22
O=C(COC(=O)c1ccc2c(c1)OCCO2)NCCc1ccc(F)cc1	1
COc1ccc(C(CNS(=O)(=O)c2cccc(F)c2)N2CCCC2)cc1 (stereo not given)	1
CCC1(c2ccc(F)cc2)NC(=O)N(CC(=O)Nc2ccc3c(c2)OCCO3)C1=O (stereo not given)	3
O=C(COC(=O)c1ccc(S(=O)(=O)N2CCOCC2)cc1)Nc1ccccc1F	0
COc1ccc(C(C)=NNC(=O)c2cccc(S(=O)(=O)N3CCCC3)c2)cc1	0
CCN(C[C@H]1N[C@@](CC)(C(=O)OC)[C@H]2C(=O)N(Cc3ccccc3)C(=O)[C@@H]12)S(=O)(=O)c1ccc(OC(F)(F)F)cc1	2
CC[N+](CC)(CC)CCOc1ccc(/C=C/c2ccccc2)cc1	-3
CCN(CC(=O)NCc1cccs1)C(=O)/C=C/c1ccc(C)cc1	-2
O=C(COc1ccc(Cl)cc1)NNC(=O)c1ccc(=O)[nH]c1	-4
CC1CCN(C(=O)c2ccc(S(=O)(=O)N3CCOCC3)cc2)CC1	5
CC(C)[C@H]1CC2C3CC=C4C[C@@H](O)CC[C@]4(C)C3CC[C@]2(C)[C@H]1O (stereo not given in full)	2
O=C(CN1C(=O)C2CC=CCC2C1=O)Nc1ccc(F)cc1F (stereo not given)	2
Cc1nn(Cc2noc(C(=O)NCCCn3ccnc3)n2)c(C)c1Br	-6
CS(=O)(=O)c1ccc(NC(=O)CCCc2nc3ccccc3c(=O)[nH]2)cc1	-8
COc1cc([N+](=O)[O-])ccc1NC(=O)COC(=O)C1=NN(c2ccccc2)C(=O)CC1	6
Cc1ccc(OCC(=O)Nc2cc(NC(=O)COc3ccc(C)c(C)c3)cc(C(=O)O)c2)cc1C	2
COc1ccc([N+](=O)[O-])cc1NCC(=O)Nc1cc(S(=O)(=O)N2CCCCC2)ccc1C	-7

16 neighbouring compounds already listed, for reference:
SMILES	Mtb bLac sens
CCCN(C(=O)COC(=O)c1nc2nc(C)cc(C)n2n1)C1CCS(=O)(=O)C1 (stereo not given)	1
CCOC(=O)[C@H]1[C@H]2COc3cc(OC)ccc3[C@@H]2N2C(=O)c3cc(F)c(F)cc3NC(=O)[C@@]12C	22
O=C(COC(=O)c1ccc2c(c1)OCCO2)NCCc1ccc(F)cc1	1
COc1ccc(C(CNS(=O)(=O)c2cccc(F)c2)N2CCCC2)cc1 (stereo not given)	1
CCC1(c2ccc(F)cc2)NC(=O)N(CC(=O)Nc2ccc3c(c2)OCCO3)C1=O (stereo not given)	3
O=C(COC(=O)c1ccc(S(=O)(=O)N2CCOCC2)cc1)Nc1ccccc1F	0
COc1ccc(C(C)=NNC(=O)c2cccc(S(=O)(=O)N3CCCC3)c2)cc1	0
CCN(C[C@H]1N[C@@](CC)(C(=O)OC)[C@H]2C(=O)N(Cc3ccccc3)C(=O)[C@@H]12)S(=O)(=O)c1ccc(OC(F)(F)F)cc1	2
CC[N+](CC)(CC)CCOc1ccc(/C=C/c2ccccc2)cc1	-3
CCN(CC(=O)NCc1cccs1)C(=O)/C=C/c1ccc(C)cc1	-2
O=C(COc1ccc(Cl)cc1)NNC(=O)c1ccc(=O)[nH]c1	-4
CC1CCN(C(=O)c2ccc(S(=O)(=O)N3CCOCC3)cc2)CC1	5
CC(C)[C@H]1CC2C3CC=C4C[C@@H](O)CC[C@]4(C)C3CC[C@]2(C)[C@H]1O (stereo not given in full)	2
O=C(CN1C(=O)C2CC=CCC2C1=O)Nc1ccc(F)cc1F (stereo not given)	2
Cc1nn(Cc2noc(C(=O)NCCCn3ccnc3)n2)c(C)c1Br	-6
CS(=O)(=O)c1ccc(NC(=O)CCCc2nc3ccccc3c(=O)[nH]2)cc1	-8

Next section
SMILES	Mtb bLac sens
CN(CCOc1ccc(F)cc1)Cc1ccccc1	1
Cc1cc(C)c(C)c(S(=O)(=O)N2CCC(C(=O)NCc3ccco3)CC2)c1C	-4
COc1ccc(N2CCN(c3ncnc4scc(-c5ccc(C)cc5)c34)CC2)cc1	4
COc1ccc(C(=O)OCc2c(-c3ccccc3)ncc3ccccc23)cc1	0
COC(=O)c1ccc(CNC(=O)[C@@H]2CCCN2S(=O)(=O)c2ccccc2F)cc1	0
CCN(C(=O)COC(=O)c1cccnc1SC)c1c(N)n(Cc2ccccc2)c(=O)[nH]c1=O	-7
CCN(CC(=O)NCc1ccc(Cl)cc1)CC(=O)NC1(C#N)CCCC1	-19
CC(C)[C@H](NC(=O)c1ccccc1F)C(=O)NNC(=O)c1cccs1	0
O=C(Nc1ccc(OC(F)(F)F)cc1)NC1CCC(Oc2ccc(C(=O)O)cc2)CC1 (stereo not given)	13
CCc1ccccc1OCC(=O)Nc1cc(S(=O)(=O)N(CC)CC)ccc1N1CCOCC1	-5
COc1ccc(NC(=O)c2ccc(NC(=O)CSc3nc(N)cc(=O)[nH]3)cc2)cc1	3
Cc1noc(C)c1COc1ccc(C(=O)N2CCC(C)CC2)cc1	4
COc1ccc(NC(=O)CSCC(=O)N(C)Cc2ccc(Cl)c(Cl)c2)cc1	-2
O=C(Nc1cccc(S(=O)(=O)NC2=NCCC2)c1)c1cc(=O)[nH]c2ccccc12	-4
O=C(CN1c2cccc3cccc(c23)S1(=O)=O)Nc1c(F)c(F)c(F)c(F)c1F	1
CC(=O)c1cn(CC(=O)Nc2ccccc2F)c2ccccc12	-12
O=C(Nc1ccc(Cl)cc1)C1CCCCN1S(=O)(=O)c1ccccc1 (stereo not given)	3
COCCCNC(=S)N1CCN(c2nc(C)nc3sc4c(c23)CCCC4)CC1	-2
CC1CCC(NC(=O)c2ccc(COc3ccccc3)o2)CC1 (stereo not given)	-5
CCCn1c(N)c(C(=O)CN(C)CC(=O)Nc2c(Cl)cccc2Cl)c(=O)[nH]c1=O	2
COc1ccc(C(CNC(=O)COc2ccccc2C)N2CCCCC2)cc1 (stereo not given)	7
COc1ccc(C(=O)NNC(=O)C(=O)N2CCCCC2)cc1OC	-10
Cc1ccccc1S(=O)(=O)NC(=NCc1ccc(F)cc1)c1ccccc1	3
CC(=O)Nc1ccc(NC(=O)C(C)OC(=O)c2c(C)nn(-c3ccccc3)c2Cl)cc1 (stereo not given)	-5
CCN(CC)S(=O)(=O)c1cccc(C(=O)N[C@H](C(=O)NC2=NCCS2)C(C)C)c1	2

Going on with the list:
SMILES	Mtb bLac sens
CCOc1cc(N2CCOCC2)c(OCC)cc1NC(=O)CN1CCSC1=O	-2
O=C(NC(=S)N1CCCC(O)C1)c1ccco1 (stereo not given)	1
COc1ccc(-c2nn(Cc3ccccc3)cc2C(=O)N2CCN(c3ncccn3)CC2)cc1	-1
O=[N+]([O-])c1ccc(Cl)c([N+](=O)[O-])c1	83
COC(=O)c1cccc(-c2noc(-c3ccccc3F)n2)c1	-3
Cc1csc(=O)n1CCC(=O)OCC(=O)NNC(=O)c1ccc(Br)cc1	23
Cc1cccc(NC(=O)c2nc[nH]c2C(=O)N2CCN(C(=O)OC(C)(C)C)CC2)c1	43
Cc1cc(OCC(=O)OCC(=O)NCCN2C(=O)CSC2=O)ccc1Cl	-3
CC1(C)CC2CC(C)(CN2C(=O)COC(=O)c2cccc([N+](=O)[O-])c2)C1 (stereo not given)	5
N#Cc1ccc(C2=CC(=O)C[C@H](c3ccc(Cl)cc3)C2)cc1	62
COC(=O)C1=C(c2ccc(C(C)=O)cc2)C[C@@H]2CC[C@H]1N2C(=O)NC1CC1	2
O=C1COc2ccc(C(=O)COC(=O)c3ccc(F)cc3Cl)cc2N1	17
O=C(CN1C(=O)NC2(CCCCCC2)C1=O)Nc1cccc(F)c1	1
CN(CCOc1ccccc1)S(=O)(=O)c1ccccc1C#N	3
CCOP(=S)(OCC)Oc1nc(Cl)c(Cl)cc1Cl	4
COc1ccccc1CN(C)CC(=O)Nc1cccc(S(=O)(=O)N2CCCC2)c1	-8
Cc1cc(C(=O)CN2C(=O)C(=O)N(C3CCCC3)C2=O)c(C)n1CCc1ccc(F)cc1	-1
COc1ccc(Cl)cc1NC(=O)CN(C)C(=O)c1sc2ccccc2c1Cl	-4
CC1CCCCC1NC(=O)NC(=O)COC(=O)c1nccnc1N (stereo not given)	2
C[C@@]12C(=O)Nc3ccc(Cl)cc3C(=O)N1[C@H]1c3ccccc3OC[C@@H]1[C@@H]2c1ccccc1	100
N#Cc1ccccc1NC(=O)c1ccc2c(c1)OCO2	-9
CCN1CCN(c2ccc(NC(=O)c3cc4ccccc4cc3OC)cc2C)CC1	55
COc1ccc2sc(-c3ccc(SC)cc3)c(/C=C/c3ccc(OC)c(OC)c3)c2c1	-4
C[C@]12CCC3C(CC[C@H]4C[C@H](O)CC[C@]34C)C1CC(=O)[C@@H]2O (stereo not given in full)	-4
NNC(=O)Cn1nc(Cc2ccccc2)n(N)c1=O	-7

3 structures already listed, ordered by count of non-hydrogen atoms, highest first.
SMILES	Mtb bLac sens
COc1ccc(Cl)cc1NC(=O)CN(C)C(=O)c1sc2ccccc2c1Cl	-4
Cc1cc(OCC(=O)OCC(=O)NCCN2C(=O)CSC2=O)ccc1Cl	-3
O=C(CN1C(=O)NC2(CCCCCC2)C1=O)Nc1cccc(F)c1	1

Next results
SMILES	Mtb bLac sens
C/C(=N\NC(=O)c1ccc(OC2CCCC2)cc1)c1ccc(O)cc1	?
COc1ccccc1NS(=O)(=O)c1cccc(C(=O)N/N=C(\C)c2cccnc2)c1	-1
COc1ccc(S(=O)(=O)N2CCN(C(C)C(=O)Nc3ccc(C(C)C)cc3)CC2)cc1 (stereo not given)	-6
COc1cc(C(=O)NNC(=O)CNC(=O)C2CCCCC2)ccc1OC(C)C	-5
O=C1C=C(c2cc(Cl)cc(Cl)c2)C[C@@H](c2ccc3c(c2)OCO3)C1	11
CSc1ncccc1C(=O)OCC(=O)NCCc1ccccc1	1
CC(C)c1ccc(NC(=O)COC(=O)[C@@H]2CCCN2C(=O)c2cccs2)cc1	-9
COc1ccc(Cl)cc1NC(=O)C(C)OC(=O)C1=NNC(=O)CC1 (stereo not given)	-10
O=C(CN1C(=O)NC2(CCOc3ccccc32)C1=O)NCc1ccc(F)cc1 (stereo not given)	-3
CN1C2Cc3c(n(C)c4ccccc34)C1CC=C2CO (stereo not given)	5
CCC(C)(C)C1CCc2[nH]nc(C(=O)NCCNC(=O)OC(C)(C)C)c2C1 (stereo not given)	-7
Cc1nn(CC(=O)N2CCc3ccccc32)c(C)c1S(=O)(=O)NC(C)(C)C	0
CC(=O)Nc1ccc(NC(=O)C(C)Oc2ccccc2C(=O)NCc2ccccc2)cc1 (stereo not given)	-2
CC[C@]12c3[nH]c4ccccc4c3CCN1C(=O)C(CC(=O)NCCC1=CCCCC1)C[C@@H]2C(=O)N1CCN(C(=O)c2ccco2)CC1 (stereo not given in full)	-1
C=CCNC(=O)c1n[nH]c2c1CC(C(C)(C)CC)CC2 (stereo not given)	-17
CC1CN(C(=O)c2cccc(S(=O)(=O)N3CCN(c4ccccc4)CC3)c2)CC(C)O1 (stereo not given)	-6
COc1ccccc1CN(C)C(=O)COC(=O)c1ccc(Cl)nc1	41
Cc1[nH]c(SCC(=O)Nc2cc(S(C)(=O)=O)ccc2Cl)nc1Cc1ccccc1	5
CSc1ncccc1C(=O)OCC(=O)N1CCc2ccccc21	-1
COc1ccc(-c2nn(-c3ccccc3)cc2C(=O)NCC2CCCO2)cc1 (stereo not given)	1
Cc1ccc(NC(=O)COC(=O)c2ccc(-n3nc(C)cc3C)cc2)c(F)c1	-2
CCCCCCSc1ccc([C@@H]2[C@@H]3C(=O)N(CC)C(=O)[C@@H]3[C@]3(C(=O)OC)CCCCN23)cc1OC	-19
O=C(CSc1nc(-c2ccc(F)cc2)cs1)NCC1CCCO1 (stereo not given)	-3
CCCCOc1ccc(C(=O)NCC(=O)NCCOc2ccccc2OC)cc1	-1
C[C@@H]1CN([C@@H](C)CO)C(=O)c2cc(NC(=O)CCC(F)(F)F)ccc2O[C@H]1CN(C)Cc1ccc(Cl)c(Cl)c1	89

Going on with the list.
SMILES	Mtb bLac sens
CC(C)(C)c1ccc(C(=O)NC(=O)CSc2n[nH]c(N)n2)cc1	-9
CCC(CO)Oc1cc(NCc2ccc(C)c(C)c2)c2ncn(C(C)C)c2c1 (stereo not given)	4
O=C(CN1C(=O)NC2(CCCC2)C1=O)Nc1cc(C(F)(F)F)ccc1N1CCCCC1	3
CN(CC(=O)Nc1ccc(F)cc1)CC(=O)NC1CCCCC1	-5
CCCn1c(NC(=O)CCNC(=O)c2ccccc2Cl)nc2ccccc21	49
Cc1ccccc1CN(C)C(=O)COC(=O)c1ccc2[nH]c(C)c(C)c2c1	-8
O=C(NNC(=O)c1cncc(Br)c1)c1ccncc1	-14
COc1cc2c(C(F)(F)F)c(-c3ccsc3)oc(=O)c2cc1OC	4
CCOC(=O)N1CCN(C(=O)c2ccc(S(=O)(=O)Nc3ccc(C)cc3)cc2)CC1	-1
Cc1cc(=O)oc2cc(OCC(=O)N3CC(=O)Nc4ccccc43)c(Cl)cc12	-6
CC(=O)N1CCN(C(=O)c2ccc(C)c(S(=O)(=O)N3CCCCC3)c2)CC1	-1
CC12CCC(=O)N1C(C(=O)NCCN1C(=O)S/C(=C\c3ccccc3Cl)C1=O)CS2 (stereo not given)	-2
COc1ccc(CN(C)CC(=O)Nc2cccc(S(=O)(=O)N(C)c3ccccc3)c2)c(OC)c1	-2
CC1Cc2ccccc2N1C(=O)COC(=O)c1n[nH]c(=O)c2ccccc12 (stereo not given)	5
CC1CCCCC12NC(=O)N(CC(=O)N1CCN(C(=O)c3cccs3)CC1)C2=O (stereo not given)	1
